SIAH1 antagonists – Siah-1 peptide-binding antagonists, primary screen, biochemical, fluorescence polarization, rhodamine-plectin, uHTS (AID 1817) | 0.02% of 290,000 active | one-dose displacement, % at 20 µM; IC50 in µM for titrated hits | Siah-1 / rhodamine-plectin peptide fluorescence polarization; higher % means a stronger effect;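 active = displacement of at least 50% at 20 µM, with a fluorescence ratio check between 0.3 and a set limit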;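 note: plate controls were Siah plus tracer with DMSO for no effect and tracer alone without Siah for full effect; strong numbers were not always called active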
SV40 large T antigen – SV40 large T antigen inhibitors, biochemical (AID 1903); SV40 large T antigen ATPase/helicase inhibition assay; higher % means a stronger effect; inhibition, % at 20 µM; hits with a dose series show IC50 in µM; 0.39% of 310,000 active; in the data active = a potency from the dose series; inconclusive = inhibition mostly from about 32% at the one dose, without a potency; inactive = the rest, 99 in 100 with inhibition below about 32%; note: strong numbers were not always called active
AID2073 – disruptors of CaV2.2 binding to Mint1 – biochemical, HTRF (AID 2073). HTRF protein-protein interaction, Mint1-CaV2.2; higher % means a stronger effect. inhibition, % at 20 µM, or IC50 in µM where a hit was titrated. 0.19% of 290,000 active; in the data active = inhibition mostly above about 51%, no sharp cut-off; inconclusive = no clear call, values can overlap the other calls; inactive = mostly below about 53%; note: some results filed as inactive read as strong as hits
Rac1 GTP hydrolysis – MgcRacGAP GTPase-activating activity inhibitors, confirmation, biochemical, ADP Hunter fluorescence; 0.6% of 340,000 active; inhibition, % at 30 µM; hits with a dose series show IC50 in µM; MgcRacGAP-stimulated Rac1 GTP hydrolysis, ADP Hunter fluorescence; higher % means a stronger effect; GST-tagged Rac1 F28L mutant substrate;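 active = first-screen hits whose inhibition reached a set limit at any dose in the follow-up dose series; inconclusive = inhibition above the set first-screen limit but never retested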;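 note: fluorescence reports GDP produced by GAP-driven GTP hydrolysis; strong numbers were not always called active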
NS5 inhibitors – Dengue-2 NS5 methyltransferase inhibitors, primary screen, biochemical, confirmation dose response (AID 588689); inhibition, % at 25 µM; hits with a dose series show IC50 in µM; 0.3% of 340,000 active; Dengue-2 NS5 methyltransferase capping enzyme assay, biochemical; higher % means a stronger effect; in the data active = a potency from the dose series; inconclusive = inhibition above about 29% without an active follow-up result
Active calls of the source: *; ? = inconclusive; . = not tested or not shown; & = joins results of further samples. An excerpt (hit frequency here may not be typical).

Value order: AID2073	NS5 inhibitors	SV40 large T antigen	SIAH1 antagonists	Rac1 GTP hydrolysis
COC(=O)[C@H]1[C@H]2C[C@H]3c4[nH]c5ccccc5c4CCN3C[C@H]2CC[C@@H]1O
→ -2%	-2%	19%	7%	9%
CSc1ccc2c(c1)N(CCC1CCCCN1C)c1ccccc1S2 (stereo unspecified)
→ 4%	-6%	36%	-1%	?
Nc1ccn([C@@H]2CS[C@H](CO)O2)c(=O)n1
→ 1%	.	10%&6%	3%	.
O=S(=O)(c1ccc(F)cc1)n1cnc2ccccc21
→ 14%	-6%	4%	-6%	7%
O=C(O)[C@@H]1CCCC[C@@H]1C(=O)N1CCc2ccccc2C1CN1C(=O)c2ccccc2C1=O (stereo partly specified)
→ 2%	-1%	9%	-3%	4%
CCN1CCN(C(=O)c2ccc(NS(=O)(=O)c3ccccc3)cc2)CC1
→ -7%	-4%	5%	0%	-3%
COc1ccc(CCN2CCC(Nc3nc4ccccc4n3Cc3ccc(F)cc3)CC2)cc1
→ -1%	-7%	9%	5%	1%
CN1Cc2c(N)cccc2C(c2ccccc2)C1 (stereo unspecified)
→ 10%	1%&-4%	15%	-3%	-4%&7%
Cc1nc2ccccc2c(-c2ccccc2)c1CC(=O)O
→ 8%	-4%	13%	8%	6%
CC(C)OC(=O)C(C)(C)Oc1ccc(C(=O)c2ccc(Cl)cc2)cc1
→ 2%	2%	12%	0%	6%
CCOC(=O)[C@H](CCc1ccccc1)N[C@H]1CCc2ccccc2N(CC(=O)O)C1=O
→ .	-5%	7%	.	5%
Cn1c(=O)n(C)c2cc(N3CCCCC3)c(NC(=O)c3ccccc3)cc21
→ 6%	5%	7%	7%	11%
CN=C(N)NCCC[C@H](N)C(=O)O
→ .	-3%	5%	.	8%

Nine entries already listed, ordered by molar mass, high to low.
Value order: AID2073	NS5 inhibitors	SV40 large T antigen	SIAH1 antagonists	Rac1 GTP hydrolysis
O=C(O)[C@@H]1CCCC[C@@H]1C(=O)N1CCc2ccccc2C1CN1C(=O)c2ccccc2C1=O (stereo partly specified)
→ 2%	-1%	9%	-3%	4%
CCOC(=O)[C@H](CCc1ccccc1)N[C@H]1CCc2ccccc2N(CC(=O)O)C1=O
→ .	-5%	7%	.	5%
CSc1ccc2c(c1)N(CCC1CCCCN1C)c1ccccc1S2 (stereo unspecified)
→ 4%	-6%	36%	-1%	?
CC(C)OC(=O)C(C)(C)Oc1ccc(C(=O)c2ccc(Cl)cc2)cc1
→ 2%	2%	12%	0%	6%
COC(=O)[C@H]1[C@H]2C[C@H]3c4[nH]c5ccccc5c4CCN3C[C@H]2CC[C@@H]1O
→ -2%	-2%	19%	7%	9%
Cc1nc2ccccc2c(-c2ccccc2)c1CC(=O)O
→ 8%	-4%	13%	8%	6%
O=S(=O)(c1ccc(F)cc1)n1cnc2ccccc21
→ 14%	-6%	4%	-6%	7%
CN1Cc2c(N)cccc2C(c2ccccc2)C1 (stereo unspecified)
→ 10%	1%&-4%	15%	-3%	-4%&7%
Nc1ccn([C@@H]2CS[C@H](CO)O2)c(=O)n1
→ 1%	.	10%&6%	3%	.
